Bioassay records from PubChem BioAssay.
Ecoli rRNA inh: inhibits bacterial ribosomal RNA function over humanized ribosomes; E. coli WT GFP vs humanized-ribosome RFP mutants, fluorescence, 24 h; active compounds read low; DMSO median 0, no signal -100; GFP signal change (wild-type ribosome), % (no concentration beside the values); hit rate 1.6% among 350,000; AID 720706;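 active = significant combined selectivity score with lowered wild-type GFP, culture density cut under 30%, mutant RFP and density less affected; inactive = any of these conditions unmet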; note: one replicate is shown; some compounds called inactive have numbers as strong as hits
ALR H2O2 inh: human ALR oxidase inhibition via reduced H2O2; P55789; AID 485317; purified ALR, DTT oxidation, H2O2 HRP-luminol luminescence; inhibition, % (no concentration beside the values); hit rate 3.8% among 290,000;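 active = mean and each replicate at 75% or more; inconclusive = only one of the two met; inactive = neither met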;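 note: stock transfer was 7.5 nL into about 7.5 µL; 0% = neutral wells and 100% = wells with inactivated enzyme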
Target sequence (P55789 whole entry, looked up): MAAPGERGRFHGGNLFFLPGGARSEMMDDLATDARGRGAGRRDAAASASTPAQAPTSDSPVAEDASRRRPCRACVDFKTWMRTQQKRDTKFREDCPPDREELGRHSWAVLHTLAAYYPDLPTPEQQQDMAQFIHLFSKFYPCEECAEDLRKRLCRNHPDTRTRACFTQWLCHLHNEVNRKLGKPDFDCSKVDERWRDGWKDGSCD
MLL AF4-AF9 inh: inhibitors of human MLL-AF4/AF9 interaction. inhibition, % at 10 µM. AlphaScreen, biotin-AF4 peptide binding to FLAG-AF9. hit rate 0.47% among 350,000;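 active = every replicate reaching a set inhibition limit, whatever the replicate mean, cut at about 25% in these data; inconclusive = mean inhibition reaches that limit but some replicates miss it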;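 note: 0% = plate neutral control median and 100% = total signal loss; the record names both 10 and 1 µM as test concentration; the first replicate is given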
Target sequence (P42568 whole entry, looked up): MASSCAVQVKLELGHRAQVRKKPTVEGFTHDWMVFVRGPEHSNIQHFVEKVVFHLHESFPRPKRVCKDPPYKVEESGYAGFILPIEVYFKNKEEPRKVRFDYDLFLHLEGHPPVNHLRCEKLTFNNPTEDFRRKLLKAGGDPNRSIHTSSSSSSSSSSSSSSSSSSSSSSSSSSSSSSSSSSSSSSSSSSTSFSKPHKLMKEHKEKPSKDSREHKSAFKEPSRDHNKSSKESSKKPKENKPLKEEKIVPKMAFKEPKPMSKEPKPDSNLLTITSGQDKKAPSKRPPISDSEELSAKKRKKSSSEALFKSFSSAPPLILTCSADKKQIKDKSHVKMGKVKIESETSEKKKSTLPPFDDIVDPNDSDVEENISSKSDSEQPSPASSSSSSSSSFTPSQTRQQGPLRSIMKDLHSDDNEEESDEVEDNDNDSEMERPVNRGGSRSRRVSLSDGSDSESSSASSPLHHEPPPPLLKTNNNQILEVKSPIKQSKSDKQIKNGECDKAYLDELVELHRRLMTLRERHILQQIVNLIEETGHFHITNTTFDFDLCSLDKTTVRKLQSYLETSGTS
Beta cell apopt: blocks beta cell apoptosis. hit rate 0.8% among 300,000. AID 435005. protection from apoptosis, % (concentration not given with the values). INS-1E cytokine-induced death, ATP luminescence, 48 h; percent of positive-control rescue, neutral wells zero;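 active = all replicates at 75% or more, or half of them and the mean; inconclusive = half reach 75% but not the mean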;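 note: 0% = cytokine-treated negative control wells and 100% = positive control rescue; higher means more ATP so stronger rescue from cytokine killing; wells of about 40 µL received 100 nL stock; the first replicate is given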
FGF22 binding: shifts melting point of recombinant human FGF22; hit rate 1.5% among 340,000; AID 651658; calls only at 9.99 µM; recombinant FGF22 thermal shift, SYPRO orange fluorescence; percent of sucrose octasulfate shift, DMSO zero;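 active = melting point raised past a set limit in the mean and every replicate; inconclusive = no clear call; three in four hits are not shown here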
Target sequence (Q9HCT0 whole entry, looked up): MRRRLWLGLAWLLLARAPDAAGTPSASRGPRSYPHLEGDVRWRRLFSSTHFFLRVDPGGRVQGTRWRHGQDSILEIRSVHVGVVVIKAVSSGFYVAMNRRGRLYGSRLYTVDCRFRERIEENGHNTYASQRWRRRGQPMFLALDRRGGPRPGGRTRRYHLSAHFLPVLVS
RanGTP-Imp inh: inhibitors of RanGTP-importin-beta interaction, primary screen, biochemical, FRET, CFP-Ran, YFP-importin-beta, homogeneous; cell-free CFP-Ran/YFP-importin-beta FRET ratio; inhibition, % (no concentration beside the values); hit rate 1.1% among 300,000; AID 2216;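 active = most replicates above 15%; inconclusive = exactly half above 15%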;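 note: 0% = DMSO wells and 100% = Ran loaded with GDP instead of GTP; wells of about 40 µL received 100 nL stock; the first replicate is given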
Calb FLC: C. albicans growth modulation with fluconazole. growth inhibition, % (no concentration beside the values). hit rate 0.57% among 300,000. C. albicans CaCi-2 (fluconazole-resistant clinical isolate) + fluconazole, Alamar Blue growth, 48 h;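 active = most replicates above 75%; inconclusive = exactly half above 75%; inactive = most below 75%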;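 note: all wells also contain fluconazole at 8 µg/ml as a sub-toxic cotreatment; 0% = median of DMSO wells and 100% = median of geldanamycin control wells; wells of about 8 µL received 7.5 nL stock; the first replicate is given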
T cruzi inh: T. cruzi replication inhibition | T. cruzi beta-gal in NIH3T3, luminescence, 90 h | inhibition, % (concentration not given with the values) | hit rate 1.4% among 300,000 | AID 1885;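 active = mean inhibition across valid replicates above about 55%, limit read from the data; inconclusive = mean below that limit but half or more replicates reach it; inactive = mean below it, under half of replicates reach it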;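 note: signal also drops with host cell toxicity which is not excluded here; 0% = plate median of DMSO wells and 100% = zero luminescence signal; higher percent means less beta-gal luminescence so fewer parasites; stock transfer was 50 nL into about 50 µL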
Ecoli rRNA inh OD600: further read-out of Ecoli rRNA inh, marked with its call; OD600 change, %; measured here: OD600 growth;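 optical density of the mix in the first replicate; 0 = DMSO median and -100 = no signal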
Ecoli rRNA inh RFP: second read-out of Ecoli rRNA inh, no call of its own (marks repeat the call); RFP signal change, %; measured here: RFP humanized mutant strains;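 first replicate; 0 = DMSO median and -100 = no signal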
Numbers without * were called inactive; i = inactive; ? = inconclusive; · = no result given. These rows are one share of the data. The share of hits here may be higher or lower than overall.

SMILES | Ecoli rRNA inh | Ecoli rRNA inh OD600 | Ecoli rRNA inh RFP | ALR H2O2 inh | MLL AF4-AF9 inh | Beta cell apopt | FGF22 binding | RanGTP-Imp inh | Calb FLC | T cruzi inh
Cc1ccc(CNC(=O)Cc2noc3ccccc23)cc1 | 1 | -9 | -1.3 | · | -7.6 | -2 | · | -2.7 | 0 | -5
C=CCN(Cc1cccc(OC)c1OC)S(=O)(=O)N(C)C | 15 | 6 | 0.9 | 7 | 14 | -12 | i | -0.6 | 1 | -1
O=C(COC(=O)c1c(Cl)cccc1Cl)Nc1cc(Cl)ccc1Oc1ccccc1 | 1 | -4 | 1.1 | -13 | -3.5 | 13 | i | -4.0 | 18 | 19
O=C(CCc1ccc(S(=O)(=O)N2CCOCC2)cc1)Nc1nccs1 | · | · | · | -4 | · | 0 | · | 1.3 | 1 | 1
CC(=O)N1CCN(c2ccc(NC(=O)c3ccc4c(c3)OCCO4)cc2Cl)CC1 | -12 | 1 | 1.1 | · | -0.1 | -5 | i | 0.2 | 8 | 14
Cc1cccc(C)c1N(Cc1ccccc1F)S(C)(=O)=O | -29 | -36 | -4.1 | 0 | 0.6 | 0 | i | -0.7 | 0 | -10
Cc1ccc(Cl)cc1N1CCN(C2CCCCC2NS(=O)(=O)c2ccccc2)CC1 (stereo not drawn) | · | · | · | -7 | · | -2 | · | 0.8 | -7 | 42
CCCCN(C)C(=O)Cn1c(=O)oc2cc(S(=O)(=O)N3CC(C)CC(C)C3)ccc21 (stereo not drawn) | 0 | -6 | -1.9 | 1 | ? | -6 | i | -1.2 | -8 | 7
NS(=O)(=O)c1ccc(CNC(=O)/C=C/c2ccco2)cc1 | 9 | -1 | 3.5 | 1 | -31 | -4 | i | 1.7 | -10 | -16
COc1ccc([C@@H](C)NC(=O)CCc2nnc(-c3cc(C)on3)o2)cc1 | 14 | 12 | 2.0 | -3 | -1.3 | -3 | · | 0.8 | 33 | -3
CSc1cccc(NS(=O)(=O)c2cc(Br)cnc2N)c1 | -46 | -67 | -8.9 | 2 | 0.9 | 1 | i | -1.5 | 1 | -1
COc1ccccc1NC(=S)N(c1ccccc1)C(C)C | 3 | 3 | -1.8 | -3 | -3.9 | 11 | i | -0.6 | -4 | 9
O=C(Nc1cccc(NC(=O)c2cccc(F)c2)c1)c1ccccc1 | 5 | 12 | -0.7 | -5 | -0.2 | 1 | i | 0.7 | 0 | 12
COc1ccc(CCC(=O)N2CCCC(Nc3ccccc3)C2)cc1OC (stereo not drawn) | 1 | -5 | 3.8 | 98* | 1.6 | 2 | i | 2.2 | 5 | 22
O=C(C1=C[C@@H](c2ccccc2)C[C@@H](OCc2ccc(CO)cc2)O1)N1CCCCCCC1 | -8 | -13 | -12 | -5 | -1.3 | 3 | i | 4.7 | 6 | 21

Overlap with the part before: 2 compounds; new compounds follow.
SMILES | Ecoli rRNA inh | Ecoli rRNA inh OD600 | Ecoli rRNA inh RFP | ALR H2O2 inh | MLL AF4-AF9 inh | Beta cell apopt | FGF22 binding | RanGTP-Imp inh | Calb FLC | T cruzi inh
COc1ccc(CCC(=O)N2CCCC(Nc3ccccc3)C2)cc1OC (stereo not drawn) | 1 | -5 | 3.8 | 98* | 1.6 | 2 | i | 2.2 | 5 | 22
O=C(C1=C[C@@H](c2ccccc2)C[C@@H](OCc2ccc(CO)cc2)O1)N1CCCCCCC1 | -8 | -13 | -12 | -5 | -1.3 | 3 | i | 4.7 | 6 | 21
O=C(N/N=C/c1ccccc1O)c1cc[n+]([O-])cc1 | -2 | 6 | -2.7 | 7 | 0.1 | 2 | i | -9.7 | -1 | -3
CN1CCN(Cc2nc3c(c(=O)[nH]c(=O)n3C)n2Cc2c(F)cccc2Cl)CC1 | 3 | -3 | -1.7 | · | -0.7 | -14 | i | -4.0 | 1 | -5
Cc1ccc(-n2cc(CN3CCCN(C=O)CC3)c(-c3ccc(F)cc3)n2)cc1 | -55 | -77 | -21 | 0 | -5.5 | · | i | 0.8 | 11 | 20
O=C(Nc1ccccc1)/C(=C\c1ccco1)NC(=O)c1ccco1 | 16 | 8 | 1.7 | 17 | -16 | -8 | i | -0.4 | -10 | 0
Cc1c(O)ccc(C(=O)CN2C(=O)c3ccccc3C2=O)c1O | · | · | · | -4 | · | -9 | · | 2.0 | 14 | -9
COc1ccccc1N1CCN(C(=O)CN(C2CCCCC2)S(C)(=O)=O)CC1 | 5 | -1 | 1.5 | 6 | -3.7 | 1 | i | -1.4 | -2 | 5
CC1=C(C(=O)Nc2ccccc2)C(c2ccc(C)o2)n2c(s/c(=C/c3ccccc3)c2=O)=N1 (stereo not drawn) | · | · | · | 2 | · | 5 | · | -4.1 | -25 | 28
CCc1cc(=O)[nH]c(SCCC(F)=C(F)F)n1 | -8 | -10 | 0.9 | 0 | -0.8 | -5 | · | ? | 8 | -10
CCOC(=O)CSc1nnc(NCC(=O)OC)c(=O)[nH]1 | · | · | · | 100* | · | -9 | · | -2.2 | -9 | -24
CCCC(=O)Nc1nc2ccc(S(N)(=O)=O)cc2s1 | 5 | 5 | -0.5 | 99* | -1.7 | -6 | i | -1.1 | 0 | 2
COc1ccccc1CNC(=O)COC(=O)c1cc(-c2ccco2)nc2ccccc12 | · | · | · | -10 | · | -10 | · | 1.3 | -11 | -13
COCc1nnc(NC(=O)CCN2C(=O)c3ccccc3C2=O)s1 | · | · | · | -11 | · | -5 | · | 3.6 | 20 | 1
CCSc1ccc([C@@H]2[C@@H]3C(=O)N(CC)C(=O)[C@@H]3[C@]3(C(=O)OC)CCCCN23)cc1OC | 0 | 1 | 3.8 | 0 | 4.3 | -2 | i | -4.2 | 15 | -10
COc1ccc(CC(=O)N/N=C/c2c(C)n(C)c3ccccc23)cc1OC | -1 | -1 | 7.2 | 31 | 14 | 4 | i | -2.6 | 6 | -4
O=C(c1noc2c1CCc1ccccc1-2)N1CCOCC1 | · | · | · | -22 | · | -4 | · | 1.0 | 5 | 3
CCn1c(-c2ccc3ncccc3c2)n[nH]c1=S | · | · | · | · | · | -2 | · | ? | 3 | -15
COc1ccc(C(F)(F)F)cc1N/C=C\c1nnnn1-c1ccc(C)cc1 | · | · | · | -2 | · | -4 | · | -2.6 | -1 | 8
Cc1ccccc1SCC(=O)Nc1cc(S(=O)(=O)N2CCOCC2)ccc1N1CCOCC1 | 5 | 3 | 12 | -7 | -1.5 | 6 | i | ? | 0 | 23
COc1cccc(-c2cc(=O)[nH][nH]2)c1 | 9 | 6 | -6.6 | 57 | 3.4 | · | i | -3.7 | 9 | -7
CN(C)S(=O)(=O)N1CCN(c2ccccc2Cl)CC1 | -21* | -15* | -9.2* | -2 | 1.3 | -4 | i | 0.5 | -11 | 4
O=C(COc1ccc(Br)cc1CO)N1CCCc2ccccc21 | -6 | -19 | 4.0 | -67 | -0.4 | 3 | i | 4.7 | 7 | 2
CCOC(=O)C1CCN(C(=O)c2cccnc2Cl)CC1 | · | · | · | -9 | · | 2 | · | -0.6 | -1 | 5
O=C(Nc1ccc(Cl)cc1C(=O)NCC1CCCO1)c1ccc(Cl)cc1Cl (stereo not drawn) | -4 | -12 | -0.6 | -13 | 0.3 | 0 | i | 6.8 | 14 | 4
Cc1cc(O)c(/C=N/Nc2cccc(Cl)c2)c(=O)o1 | · | · | · | · | · | -7 | · | -0.8 | -3 | 20
CCC/C(=N\NC(=O)c1ccc(OC)c(OC)c1)c1ccccc1 | 8 | 4 | -1.6 | · | -15 | 2 | i | 6.1 | 5 | -1
CN(CC(=O)Nc1ccc(S(=O)(=O)N2CCCC2)cc1)CC(=O)Nc1cccc(F)c1 | -20 | -19 | 0.1 | -6 | 1.0 | 2 | i | -0.8 | -36 | 1
COc1ccccc1N(C)S(=O)(=O)c1ccc(C(=O)N(C)Cc2ccc(Cl)s2)cc1 | -18 | -40 | -7.3 | -7 | 1.2 | 5 | i | · | · | ·
CCc1ccc2nc(SCC(=O)NCC3CCCO3)c(C#N)cc2c1 (stereo not drawn) | 8 | 7 | 0.1 | -13 | -2.7 | -3 | · | 2.0 | 20 | 0
CC(=O)N(Cc1cccnc1)Cc1cc2ccccc2[nH]c1=O | · | · | · | -3 | · | 0 | · | 3.3 | -5 | -11
COc1ccc(CC(=O)Nc2c(C(=O)N3CCN(c4ccccc4)CC3)oc3ccccc23)cc1OC | -12 | -2 | 8.0 | 2 | 6.2 | 6 | i | 11 | 1 | 16
Cc1occc1C(=O)Nc1cccc([N+](=O)[O-])c1C | 11 | 8 | 1.0 | -5 | 0.2 | 5 | i | ? | 4 | 11
O=C(NCCNC1CCN(Cc2ccccc2)CC1)c1cccs1 | · | · | · | · | · | -4 | · | 1.2 | -3 | 10
O=C(CSc1nnc(-c2ccc(Br)cc2)o1)Nc1cccc2ccccc12 | -13 | -17 | 9.2 | -1 | 1.7 | 4 | i | 0.4 | 85* | ·
COc1cccc(NC(=S)NCc2ccc3c(c2)cc(C)n3C)c1 | 5 | 12 | 31 | · | 4.6 | · | i | -1.2 | -25 | 11
Cc1ccc(-c2nnc(-c3ccccc3S(=O)(=O)Cc3ccc(Cl)cc3)o2)cc1 | · | · | · | -8 | · | -4 | · | 2.6 | 2 | 6
CCOC(=O)C(Cc1ccccc1)C(=O)c1ccco1 (stereo not drawn) | 3 | 5 | -6.2 | -4 | 2.4 | -9 | i | 7.5 | 10 | -10
COC(=O)c1sccc1NC(=O)c1cccc(OC)c1 | · | · | · | -3 | · | -9 | · | 6.5 | -14 | -1

Record cards (already shown).
Profile of COC(=O)c1sccc1NC(=O)c1cccc(OC)c1 → Ecoli rRNA inh = ·; Ecoli rRNA inh OD600 = ·; Ecoli rRNA inh RFP = ·; ALR H2O2 inh = -3; MLL AF4-AF9 inh = ·; Beta cell apopt = -9; FGF22 binding = ·; RanGTP-Imp inh = 6.5; Calb FLC = -14; T cruzi inh = -1
Profile of O=C(NCCNC1CCN(Cc2ccccc2)CC1)c1cccs1 → Ecoli rRNA inh = ·; Ecoli rRNA inh OD600 = ·; Ecoli rRNA inh RFP = ·; ALR H2O2 inh = ·; MLL AF4-AF9 inh = ·; Beta cell apopt = -4; FGF22 binding = ·; RanGTP-Imp inh = 1.2; Calb FLC = -3; T cruzi inh = 10

An excerpt from above in order of heavy-atom count, falling.
SMILES | Ecoli rRNA inh | Ecoli rRNA inh OD600 | Ecoli rRNA inh RFP | ALR H2O2 inh | MLL AF4-AF9 inh | Beta cell apopt | FGF22 binding | RanGTP-Imp inh | Calb FLC | T cruzi inh
Cc1ccc(Cl)cc1N1CCN(C2CCCCC2NS(=O)(=O)c2ccccc2)CC1 (stereo not drawn) | · | · | · | -7 | · | -2 | · | 0.8 | -7 | 42
CCC/C(=N\NC(=O)c1ccc(OC)c(OC)c1)c1ccccc1 | 8 | 4 | -1.6 | · | -15 | 2 | i | 6.1 | 5 | -1
COC(=O)c1sccc1NC(=O)c1cccc(OC)c1 | · | · | · | -3 | · | -9 | · | 6.5 | -14 | -1
